MgcRacGAP = inhibition of MgcRacGAP-stimulated Rac1 GTP hydrolysis – biochemical, inorganic phosphate detection, orthogonal assay, confirmation (AID 652142); MgcRacGAP/Rac1F28L GTP hydrolysis, Biomol green phosphate; stronger effect = higher value; test concentration not given here; none was called active though about 1 in 100 pass the limit; inhibition, %; 2,400 tested, under 10 active;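 active means inhibition over three standard deviations or about 65%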;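 further: full inhibition control lacks the GAP enzyme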
An asterisk follows results filed as active.

SMILES | MgcRacGAP
O=C(Nc1ccc(O)cc1)c1cc2n(n1)C(C(F)(F)F)CC(c1ccco1)N2 (centres undefined) | 28
COc1cccc(NC2=C(C#N)C(=O)NC(c3cccc(OC)c3O)S2)c1 (centres undefined) | 28
COc1ccc2cc(OCC(=O)NNC(=O)Nc3ccc(C(C)=O)cc3)ccc2c1 | 46
O=C1CCCC/C1=C\Nc1ccc(O)cc1 | 30
COc1ccc(-c2cn[nH]c2-c2ccc(O)cc2O)cc1 | 29
COc1cc(/C=C/C(=O)OCC(=O)N2CCN(S(=O)(=O)c3ccc(C)cc3C)CC2)ccc1O | 26
CCOc1cc(/C=N/NC(=O)C(=O)N2CCCC2)ccc1O | 24
CCn1c(SC(C)C)nnc1-c1cc(-c2ccccc2)sc1N | 25
CCOc1cc(C2NN=C(c3ccc(C)cc3)S2)ccc1O (centres undefined) | 20
CCN(CC(=O)Nc1cc(Cl)ccc1OC)CC(=O)NC1CCS(=O)(=O)C1 (centres undefined) | 27
CN1CCc2c1nc1ccccc1c2NC(=O)CN1CCCC1 | 18
COc1cc(NC(=O)COC(=O)/C=C/c2ccc(O)c(OC)c2)cc(OC)c1 | 6
COc1cc(/C=N/NC(=O)C(C)Nc2n[nH]c(=O)[nH]c2=O)ccc1O (centres undefined) | 22
Cc1cc(NCCCCCCCNc2cc(C)nc3cc([N+](=O)[O-])ccc23)c2ccc([N+](=O)[O-])cc2n1 | 76
COc1cccc(OC)c1OCCCCN1CCCC1 | 22
COC(=O)C1CCN(C(=O)COC(=O)/C=C/c2ccc(O)c(OC)c2)CC1 | 22
CC1CC(=O)N(c2ccc(NCCc3ccc(O)cc3)c([N+](=O)[O-])c2)C1=O (centres undefined) | 29
COc1ccc(OC(=O)C2CC(=O)N(c3ccc(C)cc3)C2)cc1 (centres undefined) | 33
CNC(=S)N/N=C/c1ccc(N2CCOCC2)s1 | 38
CCn1c(=O)c(C(=O)CN(C)Cc2cccc(OC)c2OC)c(N)n(Cc2ccccc2)c1=O | 36

Sorted by count of non-hydrogen atoms (descending): some entries from above
SMILES | MgcRacGAP
CCn1c(=O)c(C(=O)CN(C)Cc2cccc(OC)c2OC)c(N)n(Cc2ccccc2)c1=O | 36
COC(=O)C1CCN(C(=O)COC(=O)/C=C/c2ccc(O)c(OC)c2)CC1 | 22
CCOc1cc(/C=N/NC(=O)C(=O)N2CCCC2)ccc1O | 24
CNC(=S)N/N=C/c1ccc(N2CCOCC2)s1 | 38

Other structures follow:
SMILES | MgcRacGAP
CCOC(=O)C1(C)C=C(Nc2ccc(O)cc2)C(=O)N1c1ccc(O)cc1 (centres undefined) | 28
O=C1NN(c2ccc(Br)cc2)C(=O)/C1=C\c1ccc(O)cc1O | 21
Cc1cc(/C=C(\C#N)C(=O)N2CCCCC2)cc(C)c1O | 24
COc1ccc(CNc2ncc(-c3ccc(Br)cc3)n2C)cc1OC | 24
CCCS(=O)(=O)N1CCN(CC2CC3C=CC2C3)CC1 (centres undefined) | 11
O=C(CC(c1ccccc1)c1ccccc1)Nc1ccc(O)cc1 | 9
Oc1ccc(/C=N/Nc2cc(N3CCOCC3)nc(N3CCOCC3)n2)cc1O | 7
CN(C)c1ccc(C=c2c3ccccc3n3c2c2c([n+]3C)CCCC2)cc1 | 31
COC(=O)/C(=C/Nc1ccc(O)cc1)[N+](=O)[O-] | 28
N#CC1=C(S)N(c2ccc(F)cc2)C(c2cccs2)NC1=O (centres undefined) | 42
O=C1C=CC(=O)c2c(O)c(N3CCN(CCOCCO)CC3)c(Br)c(O)c21 | 78
CC(=O)N(C1=C(Cl)C(=O)c2ccccc2C1=O)c1ccc(C(=O)O)cc1 | 28
CCN(CC)c1ccc(NC(=O)CN2C(=O)NC3(CCc4ccccc43)C2=O)cc1 (centres undefined) | 18
O=C1NC(=O)C(c2ccccc2[N+](=O)[O-])=C1Nc1ccc(O)c(Cl)c1 | 28
S=c1[nH]nc(-c2cccnc2)n1/N=C/c1cccs1 | 22
Nc1ccc(OCc2ccco2)cc1 | 74
CN(C)c1ccc(NC(=O)c2ccc3nsnc3c2)cc1 | 24
CCOC(=O)c1[nH]c(=S)n(Cc2ccccc2)c1C(=O)OCC | 9
Cc1c(Cl)sn(-c2ccc(Cl)cc2)c1=O | 84
O=C(NCc1ccco1)c1sc(=S)n2c1[nH]c(=O)c1ccccc12 | 32
Cc1cccc(NC(=O)CCC(=O)N/N=C/c2ccc(O)cc2O)c1 | 19
COc1cccc(OC)c1OCCCN1CCOCC1 | 25
CCN(CC)c1ccc(/C=N/NC(=S)NC)c(O)c1 | 23
COCCCn1c(=S)[nH]c2sc3c(c2c1=O)CCCC3 | 18
CCN(CC)c1ccc(/C=N/O)cc1 | 26
CCOc1cc(/C=N/NC(=O)c2ccccc2-n2cccc2)ccc1O | 30
COc1cc(CNC2CCCCC2OC)cc(OC)c1 (centres undefined) | 23
COc1ccc(-n2sc3ccc(F)cc3c2=O)cc1 | 79
COc1ccccc1NS(=O)(=O)c1cc(N)ccc1N1CCCC1 | 16
CN(C)c1cc(NC(=O)CN2CCCC2)c2ccccc2n1 | 22
Oc1ccc(N2CCN(c3ccnc4cc(Cl)ccc34)CC2)cc1 | 15
COc1ccc(C(=O)CCC(=O)Nc2cc(Cl)c(O)c(Cl)c2)cc1 | 17
CC(C)(C)N1C(=O)c2ccc(C(=O)Nc3ccc(O)cc3)cc2C1=O | 24
O=C(Cc1coc2cc(O)ccc12)NNC(=O)c1cccs1 | 34
CCOc1ccccc1NC(=O)C(NCC1(N2CCCCC2)CCCCC1)c1ccccc1 (centres undefined) | 22
CC1(C)CC(NC(=O)N2c3ccccc3Sc3ccccc32)CC(C)(C)N1 | 23
N#CC1=C(N)NC(=S)C(C(N)=O)C1c1ccc([N+](=O)[O-])cc1 (centres undefined) | 27
CN=c1scc(C)n1/N=C/c1cc(Br)c(O)c(Br)c1 | 30
COc1cc(/C=N\NC(=O)c2c(C)nc3cc(C)ccn23)ccc1O | 7
CCN1/C(=C/c2ccc3cc(C)ccc3[n+]2CC)Sc2ccccc21 | 24

> C/C(=N\Nc1nc2ccccc2[nH]1)c1cccs1
  MgcRacGAP: 32
> Cc1c(Cl)cccc1NC(=S)Nc1ccc2[nH]c(=O)[nH]c2c1
  MgcRacGAP: 12
> Cc1ccc2c(c1)C(C)CC(C)(C)N2C(=O)CN1CCN(C)CC1 (centres undefined)
  MgcRacGAP: 26
> O=C(Oc1ccc(N(C(=O)c2ccncc2)S(=O)(=O)c2cccs2)cc1)c1ccncc1
  MgcRacGAP: 26
> COc1cc(NCCC(=O)c2cccs2)c(OC)cc1Cl
  MgcRacGAP: 25
> Nc1ccc2c(c1)Cc1cc(N)c(Cl)cc1-2
  MgcRacGAP: 7
> COc1cc(C(=O)N/N=C/c2cn(Cc3ccccc3)c3ccccc23)ccc1O
  MgcRacGAP: 20
> COc1cccc(/C=N/n2c(-c3n[nH]c4c3CCC4)n[nH]c2=S)c1O
  MgcRacGAP: 30
> COC(C(=O)N/N=C(\C)CC(=O)Nc1ccc(N(C)C)cc1)c1ccccc1 (centres undefined)
  MgcRacGAP: 20
> Nc1ccc2c(c1)[nH]c(=O)c1cc(N)ccc12
  MgcRacGAP: 24
> COc1ccc(CN2CCN(c3ccccn3)CC2)c(OC)c1C
  MgcRacGAP: 21
> CCOCCCNC(=O)/C(C#N)=C/c1ccc([N+](=O)[O-])o1
  MgcRacGAP: 39
> Cc1cc(/C=C2\SC(=S)NC2=O)cc(C)c1O
  MgcRacGAP: 28
> C=CCn1c(SCC(=O)Nc2ccc(O)cc2)nc2sc(CC)cc2c1=O
  MgcRacGAP: 19
> N#CC1=C(S)N(c2ccc(F)cc2)C(c2ccco2)NC1=O (centres undefined)
  MgcRacGAP: 36
> Cn1nccc1C(=O)Nc1ccc(OC(=O)c2ccnn2C)cc1
  MgcRacGAP: 24
> Cn1cccc1/C=N/N1CCN(Cc2ccccc2Cl)CC1
  MgcRacGAP: 10
> Nc1ccc2nc(N)sc2c1
  MgcRacGAP: 5
> N#C/C(=C\c1ccc(N2CCOCC2)o1)c1ccccc1
  MgcRacGAP: 21
> N/C(=N\OC(=O)N1c2ccccc2Sc2ccccc21)c1ccc(Br)cc1
  MgcRacGAP: 19
> COc1nc(N)nc(NC(=O)c2cccs2)c1N=O
  MgcRacGAP: 36

Filtered by structure: the compounds so far with a halogen
> O=C(Nc1ccc(O)cc1)c1cc2n(n1)C(C(F)(F)F)CC(c1ccco1)N2 (centres undefined)
  MgcRacGAP: 28
> CCN(CC(=O)Nc1cc(Cl)ccc1OC)CC(=O)NC1CCS(=O)(=O)C1 (centres undefined)
  MgcRacGAP: 27
> O=C1NN(c2ccc(Br)cc2)C(=O)/C1=C\c1ccc(O)cc1O
  MgcRacGAP: 21
> COc1ccc(CNc2ncc(-c3ccc(Br)cc3)n2C)cc1OC
  MgcRacGAP: 24
> N#CC1=C(S)N(c2ccc(F)cc2)C(c2cccs2)NC1=O (centres undefined)
  MgcRacGAP: 42
> O=C1C=CC(=O)c2c(O)c(N3CCN(CCOCCO)CC3)c(Br)c(O)c21
  MgcRacGAP: 78
> CC(=O)N(C1=C(Cl)C(=O)c2ccccc2C1=O)c1ccc(C(=O)O)cc1
  MgcRacGAP: 28
> O=C1NC(=O)C(c2ccccc2[N+](=O)[O-])=C1Nc1ccc(O)c(Cl)c1
  MgcRacGAP: 28
> Cc1c(Cl)sn(-c2ccc(Cl)cc2)c1=O
  MgcRacGAP: 84
> COc1ccc(-n2sc3ccc(F)cc3c2=O)cc1
  MgcRacGAP: 79
> Oc1ccc(N2CCN(c3ccnc4cc(Cl)ccc34)CC2)cc1
  MgcRacGAP: 15
> COc1ccc(C(=O)CCC(=O)Nc2cc(Cl)c(O)c(Cl)c2)cc1
  MgcRacGAP: 17
> CN=c1scc(C)n1/N=C/c1cc(Br)c(O)c(Br)c1
  MgcRacGAP: 30
> Cc1c(Cl)cccc1NC(=S)Nc1ccc2[nH]c(=O)[nH]c2c1
  MgcRacGAP: 12
> COc1cc(NCCC(=O)c2cccs2)c(OC)cc1Cl
  MgcRacGAP: 25
> Nc1ccc2c(c1)Cc1cc(N)c(Cl)cc1-2
  MgcRacGAP: 7
> N#CC1=C(S)N(c2ccc(F)cc2)C(c2ccco2)NC1=O (centres undefined)
  MgcRacGAP: 36
> Cn1cccc1/C=N/N1CCN(Cc2ccccc2Cl)CC1
  MgcRacGAP: 10
> N/C(=N\OC(=O)N1c2ccccc2Sc2ccccc21)c1ccc(Br)cc1
  MgcRacGAP: 19

Bioassay records (PubChem BioAssay)

Some of the compounds tested (hit frequency here may not be typical).
